Screens (PubChem)
ugtP null kill = growth inhibition of S. aureus ugtP deletion strain. S. aureus RN4220 ugtP deletion, OD600 growth, 16 h; some inactives read as strong as hits. growth inhibition, % (no concentration beside the values). 330,000 tested, 0.54% active;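 active = z-score under -3 and OD600 up to 0.15 on both plates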;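 also: plate controls were untreated wells for no effect and antibiotic for full effect; wells of about 80 µL received 100 nL stock; the first replicate is given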
PrP 5UTR inh = suppresses PrP 5' UTR mRNA reporter expression; cell-based PrP 5' UTR mRNA reporter, plate reader; inhibition, % (test concentration not listed); 340,000 tested, 0.35% active; AID 488862;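 active = every replicate at 50% or more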;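 also: 0 = median of the neutral control wells; tested in H4 reporter cells; numbers are from one replicate; inactives centre near -14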
Sa RN4220 lethal = S. aureus RN4220 growth inhibition. AID 1259311. OD600, 16 h. 330,000 tested, 0.33% active. inhibition, % (test concentration not listed);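 active = z-score of -3 or lower and OD600 up to 0.18 on both plates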;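 also: plate controls were untreated cells for no effect and reference antibiotic for full effect; stock transfer was 100 nL into about 80 µL; one replicate is shown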
Mtb hypoxia inh = inhibitors of hypoxia-regulated fluorescent reporter in Mycobacterium tuberculosis; AID 1159583; M. tuberculosis hypoxia-regulated fluorescent reporter, fluorescence; 300,000 tested, 0.1% active; fluorescence inhibition, % (concentration not given with the values);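 active = 35 to 45% if threefold the growth effect, above 45% if 1.5-fold the growth effect; inactive = the rest, general growth blockers included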;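 also: wells of about 50 µL received 100 nL stock; 0% = vehicle wells and 100% = reference inhibitor wells; whole bacteria with a GFP reporter of the hypoxia response; strong numbers were not always called active; many hits fall short of the cut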
Autofluor counter = counter-screen for toxin protease inhibitors: compound fluorescence; compound autofluorescence counterscreen, microsphere flow cytometry; active compounds read high; 360,000 tested, 3.1% active; fluorescence intensity (test concentration not listed);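 active = at least 3 SD above the mean of all compounds, about 16000 in these data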;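 also: 100 nL of 1 mM stock went into each well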
BJeLR viability = kills HRASV12-expressing BJeLR cells; 300,000 tested, 0.17% active; AID 1554; inhibition, % (test concentration not listed); BJeLR (HRASV12) viability, CellTiter-Glo ATP luminescence, 48 h; reference of the scale not given here;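 active = replicate mean above 50%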;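 also: 50 nL library stock added to about 25 µL; numbers are from one replicate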
Mtb hypoxia inh growth = recorded beside Mtb hypoxia inh, whose call it bears; growth inhibition, %; measured here: M. tuberculosis growth (absorbance);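 0% = vehicle and 100% = reference antibiotic; read after six days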
The depositor's hits bear a star; . = no result given.

1	CC1(C)NC(=O)N(CC(=O)NNC(=O)c2ccccc2F)C1=O
2	CCOc1ccc(Nc2nc(NCC3CCCO3)c3ccccc3n2)cc1 (configuration not stated)
3	CN(C(=O)C1CCCO1)C1CCS(=O)(=O)C1 (configuration not stated)
4	CC(C)(C)NC(=O)Cn1nnnc1-c1nonc1N
5	COC(=O)c1sc(N2CCCCC2)c(C#N)c1N
6	O=C(O)CSc1c2c(nc3cc(C(=O)NCCN4CCOCC4)ccc13)CCC2
7	O=C1C2CCCN2C(=O)N1CCCCN1CCN(c2cccc(Cl)c2)CC1 (configuration not stated)
8	CCOC(=O)N1CCN(C(=O)CN2C(=O)COc3ccc(S(=O)(=O)N4CCOCC4)cc32)CC1
compound no.	1	2	3	4	5	6	7	8
Mtb hypoxia inh	9	-22	3	-3	-11	-5	19	-9
Mtb hypoxia inh growth	7	5	11	8	-5	-2	10	8
PrP 5UTR inh	-14	-6	-11	-19	-27	.	-21	7
Autofluor counter	5575	3676	4711	3231	4132	.	2332	5705
BJeLR viability	.	11	3	4	-14	4	-7	0
Sa RN4220 lethal	-3.6	-6.9	2.0	16	11	0.4	6.1	-0.5
ugtP null kill	-1	-28	6	4	-2	-2	11	-1

9	CC(Sc1ccc(Cl)cc1)C(=O)Nc1ccc(S(=O)(=O)N2CCOCC2)cc1 (configuration not stated)
10	Cc1scc(C(=O)N2CCN(S(C)(=O)=O)CC2)c1-c1ccccc1
11	C1CCC(Nc2nnnn2C2CCCCC2)CC1
12	COc1ccc(CC(=O)N2CCN(C)CC2)cc1OC
13	CCCC(C)C(=O)Nc1ccc(S(=O)(=O)N2CCCC2)cc1 (configuration not stated)
14	CC(C)CNC(=O)c1ccccc1NC(=O)c1ccccc1N(C)S(=O)(=O)c1ccccc1
15	COc1ccc(N(CC(=O)NCc2ccco2)S(C)(=O)=O)cc1Cl
16	Cc1ccc(NC(=O)C2=NNC(=O)CC2)cc1S(=O)(=O)Nc1ccc(SC(F)F)cc1
compound no.	9	10	11	12	13	14	15	16
Mtb hypoxia inh	14	3	.	3	9	2	13	17
Mtb hypoxia inh growth	8	5	.	6	8	6	13	8
PrP 5UTR inh	-10	4	-21	-6	-17	-12	-15	-21
Autofluor counter	3316	24362*	4757	10912	3270	2070	3949	3867
BJeLR viability	1	-8	-9	-5	1	6	-14	.
Sa RN4220 lethal	3.5	0.5	0.4	2.1	0.5	5.0	7.7	-4.7
ugtP null kill	-4	0	-2	0	13	-7	-4	-3

17	CCCCCCS(=O)[C@H]1CS(=O)(=O)C[C@@H]1S(=O)CCCCCC (some centres not stated)
18	COC(=O)C1CN(C(=O)c2cccc(OC(F)F)c2)c2ccccc2O1 (configuration not stated)
19	CC(C)CCNc1nc2c(cc1C#N)COC(C)(C)C2
20	COc1ccc(CCNC(=O)CCn2c(=O)c3cccn3c3ccc(F)cc32)c(OC)c1OC
21	NS(=O)(=O)c1ccc(F)c(C(=O)O)c1
22	COc1ccc(N2CCN(C(=O)c3[nH]c4ccc(OC)cc4c3C)CC2)cc1
23	O=C(CC1C(=O)N(c2ccc(F)cc2)C(=O)N1Cc1ccccn1)Nc1ccccc1 (configuration not stated)
24	Cn1c(CC(=O)NNC(=O)c2cccnc2)nc2ccccc21
compound no.	17	18	19	20	21	22	23	24
Mtb hypoxia inh	.	-3	.	10	9	-5	4	1
Mtb hypoxia inh growth	.	-6	.	4	2	-18	-7	3
PrP 5UTR inh	0	-12	-11	-24	-2	-26	-12	-4
Autofluor counter	3510	5643	4696	5662	4225	3959	11299	2908
BJeLR viability	9	-2	1	-6	7	0	-9	.
Sa RN4220 lethal	-8.8	1.2	1.3	-0.9	0.7	7.7	-5.5	0.1
ugtP null kill	7	8	6	-13	2	15	0	-1

25	CCOC(=O)[C@@H]1[C@H]2COc3ccccc3[C@H]2N2C(=O)N(c3ccc(OC)cc3)C(=O)[C@]12C
26	Cc1ccc(-c2nc(CS(=O)CC(=O)NCc3ccccc3)c(C)o2)cc1 (configuration not stated)
27	CCOC(=O)c1c(C)[nH]c(C)c1S(=O)(=O)N(C)CC(=O)NCc1ccc(F)cc1
28	COc1cc(OC)c(C=Nn2c(C3CCCCC3)n[nH]c2=S)c(OC)c1
29	Cc1cc(C(=O)OCC(=O)Nc2ccccc2F)c(C)n1C1CC1
30	Nn1c(SCC(=O)Nc2ccccc2Br)nnc1-c1ccco1
31	CCCNc1c(NS(=O)(=O)c2cccc(C#N)c2)c(=O)oc2ccccc12
32	COc1c(O)ccc2cnn(-c3ccccc3C)c(=O)c12
compound no.	25	26	27	28	29	30	31	32
Mtb hypoxia inh	.	6	7	12	-7	6	3	1
Mtb hypoxia inh growth	.	6	2	7	1	11	1	2
PrP 5UTR inh	-24	2	-31	.	-42	1	-12	-16
Autofluor counter	4628	4625	5317	.	5885	5267	5596	3864
BJeLR viability	-1	12	-1	.	.	-1	13	2
Sa RN4220 lethal	.	-9.4	2.6	-1.1	3.3	5.8	5.0	0.2
ugtP null kill	.	-10	-3	14	1	4	7	-3

33	CC(NC(=O)C(Cc1ccccc1)NC(=O)c1ccccc1)C(=O)O (configuration not stated)
34	O=C(NCCOc1ccc(Cl)cc1)c1ccc2ccccc2n1
35	CCOC(=O)N1CCC(Nc2c([N+](=O)[O-])cc(C(=O)O)cc2[N+](=O)[O-])CC1
36	O=C(c1ccccc1)N1CCN(S(=O)(=O)N2CCCCC2)CC1
37	CCCCN(CC)CCCNC(=O)c1cn(CC(C)C)c(=O)c2c1c1ccccc1n2C
38	CCOC(=O)C1(CC2CCCCO2)CCN(C(=O)Nc2ccccc2)CC1 (configuration not stated)
39	COc1cc(/C=N/NS(=O)(=O)c2ccc(C)cc2)ccc1OCc1ccc(C(=O)O)cc1
40	CC(CCc1ccccc1)=NNC(=O)c1ccccc1[N+](=O)[O-]
compound no.	33	34	35	36	37	38	39	40
Mtb hypoxia inh	7	3	8	.	0	7	.	6
Mtb hypoxia inh growth	2	7	-1	.	0	5	.	-1
PrP 5UTR inh	-9	-43	-20	-8	-6	-7	48	.
Autofluor counter	22982*	4055	3751	3580	5551	2919	2121	.
BJeLR viability	-11	2	2	2	7	-4	4	.
Sa RN4220 lethal	2.8	43	5.4	3.0	-1.3	4.0	.	5.2
ugtP null kill	6	5	-3	0	-1	10	.	4

41	O=C(CCNC(=O)c1ccc(Br)o1)NC1CCCC1
42	CC(C)(C)/C(COc1ccccc1[N+](=O)[O-])=N/O
43	Cc1ccc(O)c(-c2cc(C(=O)Nc3ccc(S(=O)(=O)Nc4nc(C)cc(C)n4)cc3)[nH]n2)c1
44	CCOc1cc(C=NO)cc(Br)c1OCC(=O)NCc1ccccc1
45	CCCn1cc(SCC(N)=O)c2ccccc21
46	CC1CCN(C(=O)CCNC(=O)c2ccccc2)CC1
47	CC12CC3CC(C)(C1)CC(C(=O)NCc1ccco1)(C3)C2
48	CC(=O)n1cc([C@@H]2C=C(C(=O)N3CCN(Cc4ccccc4)CC3)O[C@H](OCc3ccc(CO)cc3)C2)c2ccccc21
compound no.	41	42	43	44	45	46	47	48
Mtb hypoxia inh	1	.	0	16	4	17	19	.
Mtb hypoxia inh growth	6	.	13	9	2	-2	18	.
PrP 5UTR inh	-2	-9	-6	.	-25	-19	-15	5
Autofluor counter	16174*	4602	2029	.	6190	4668	4288	4558
BJeLR viability	-4	5	-18	.	-2	7	4	-11
Sa RN4220 lethal	1.0	.	-0.7	21	7.8	6.6	3.5	.
ugtP null kill	3	.	-11	10	6	3	-4	.

The final two records of the section above open the next one:
47	CC12CC3CC(C)(C1)CC(C(=O)NCc1ccco1)(C3)C2
48	CC(=O)n1cc([C@@H]2C=C(C(=O)N3CCN(Cc4ccccc4)CC3)O[C@H](OCc3ccc(CO)cc3)C2)c2ccccc21
49	COCCCN(C(=O)c1ccccc1)c1nc(-c2ccc(OC)cc2)cs1
50	O=C(NCc1nnnn1-c1cccc(F)c1)c1ccc(S(=O)(=O)N2CCOCC2)cc1
51	N#Cc1sc2nc(C3CC3)cc(-c3ccccc3)c2c1N
52	COc1ccccc1C(=O)Nc1nnc(S(=O)(=O)N2CCC(C)CC2)s1
53	COC(=O)c1ccc(C(=O)OC)c(NC(=O)CSc2n[nH]c(N)n2)c1
54	CC(=O)Nc1ccc(NC(=O)COc2ccc(S(=O)(=O)N3CCCC3)cc2)cc1
55	COc1ccc(CNc2ncc(-c3ccccc3)n2C)c2ccccc12
56	O=C(CSc1nnc(-c2ccncc2)n1C1CCCCC1)Nc1cccc(O)c1
compound no.	47	48	49	50	51	52	53	54	55	56
Mtb hypoxia inh	19	.	17	3	-2	2	14	9	-8	6
Mtb hypoxia inh growth	18	.	0	2	-7	-4	7	7	5	10
PrP 5UTR inh	-15	5	-26	-2	-1	-10	-15	-9	-15	-24
Autofluor counter	4288	4558	3041	10511	2619	4528	3439	5776	3460	16523*
BJeLR viability	4	-11	6	8	8	10	.	9	1	4
Sa RN4220 lethal	3.5	.	3.7	2.3	33	18	2.9	1.4	-2.4	4.8
ugtP null kill	-4	.	12	2	-3	-3	9	4	-27	10

57	O=C(COC(=O)C1Cc2ccccc2CN1C(=O)c1ccccc1)Nc1ccc(SC(F)F)cc1 (configuration not stated)
58	C[N+]1(C2CCC3CCCC2C3O)CCCC1 (configuration not stated)
59	Cc1cccc(COC(=O)CCCNC(=O)c2ccc(Cl)cc2)c1
60	CC(=O)c1ccc(NC(=O)Nc2cccc3ccccc23)cc1
61	Cc1noc(C)c1C(=O)N(CC(=O)Nc1ccc(Cl)c(C(F)(F)F)c1)Cc1ccco1
62	CCN1C(=O)C2C(c3ccc(Cl)cc3)N3C(=O)CN(CC4CC4)C(=O)[C@@]3(Cc3ccccc3)C2C1=O (some centres not stated)
63	Cc1ccc2c(C)c(C(=O)N(C)C(C)c3ccncn3)oc2c1C (configuration not stated)
64	COc1ccc(/C=C2/S/C(=N/N=C3\CC4CCC3(C)C4(C)C)NC2=O)cc1 (configuration not stated)
65	O=C(COC(=O)C1CCN(S(=O)(=O)c2cccs2)CC1)Nc1ccc(F)c(F)c1F
66	CCOC(=O)C1CCCN(C(=S)Nc2ccc(C)cc2C)C1 (configuration not stated)
67	CC1CCCN(C(=O)COC(=O)C2CCN(S(=O)(=O)c3ccc(Cl)c(C(F)(F)F)c3)CC2)C1 (configuration not stated)
compound no.	57	58	59	60	61	62	63	64	65	66	67
Mtb hypoxia inh	10	6	4	14	18	10	15	.	0	6	-3
Mtb hypoxia inh growth	5	6	-1	1	8	6	5	.	-3	1	1
PrP 5UTR inh	-27	4	-29	-7	-9	.	-11	-8	-18	-23	-1
Autofluor counter	2008	2493	4542	4893	3710	.	7399	2644	5261	16244*	4589
BJeLR viability	-3	2	.	.	.	.	-2	-7	.	-2	2
Sa RN4220 lethal	3.5	7.5	3.0	-0.8	-3.3	7.4	5.9	.	2.2	5.2	-1.8
ugtP null kill	8	3	3	-2	-17	4	10	.	11	9	-11

Values by screen from the list:
Autofluor counter for nos. 59 to 64 → 4542, 4893, 3710, ., 7399, 2644
